High-throughput results from PubChem BioAssay.
MenB inh: M. tuberculosis MenB inhibitors, primary screen, biochemical, absorbance | 1,4-dihydroxy-2-naphthoyl-CoA synthase (Mycobacterium tuberculosis (strain ATCC 25618 / … | MenB enzyme assay, absorbance read-out; some hits fall short of the stated cut | inhibition, %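 (about 12 µg/mL by stock and volumes)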 | actives 0.43% (n = 100,000);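 active = mean of two replicates above 30%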;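 also: 0% = no compound and 100% = wells with inactive enzyme; the first replicate is given; strong numbers were not always called active; inactives centre near -10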
Target sequence (P9WNP5 whole entry, looked up): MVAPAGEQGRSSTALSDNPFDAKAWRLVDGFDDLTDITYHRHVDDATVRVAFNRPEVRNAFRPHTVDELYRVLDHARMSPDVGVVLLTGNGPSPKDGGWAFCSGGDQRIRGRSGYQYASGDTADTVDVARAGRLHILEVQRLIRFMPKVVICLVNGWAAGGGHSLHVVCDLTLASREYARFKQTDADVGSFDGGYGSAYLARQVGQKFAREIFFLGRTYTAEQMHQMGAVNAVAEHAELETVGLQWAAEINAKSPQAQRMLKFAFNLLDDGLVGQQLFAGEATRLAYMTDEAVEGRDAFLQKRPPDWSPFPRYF
MbtI inh: MbtI salicylate synthase inhibitors, primary screen, biochemical, fluorescence intensity; purified MbtI enzyme, fluorescence intensity read-out; AID 493033, 2011; P9WFX0; inhibition, %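 (about 17 µg/mL by stock and volumes)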; actives 0.89% (n = 100,000);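 active = above 50% in both replicates, above 80% if mildly self-fluorescent; inactive = the rest, strongly fluorescent compounds included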;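 also: 0% = mean of negative and 100% = mean of positive controls; one replicate is shown; some compounds called inactive have numbers as strong as hits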
PV pol inh: poliovirus RdRp elongation inhibitors, primary screen, biochemical, fluorescence polarization, total intensity; % elongation, % (compound at 16.7 µg/mL); Genome polyprotein (Poliovirus type 1 (strain Mahoney)), P03300; actives 0.66% (n = 150,000); poliovirus polymerase elongation; stronger effect = lower value; in the data active = % elongation below about 90%; also: some results filed as inactive read as strong as hits
Target sequence (P03300 1749-2209 limits assumed): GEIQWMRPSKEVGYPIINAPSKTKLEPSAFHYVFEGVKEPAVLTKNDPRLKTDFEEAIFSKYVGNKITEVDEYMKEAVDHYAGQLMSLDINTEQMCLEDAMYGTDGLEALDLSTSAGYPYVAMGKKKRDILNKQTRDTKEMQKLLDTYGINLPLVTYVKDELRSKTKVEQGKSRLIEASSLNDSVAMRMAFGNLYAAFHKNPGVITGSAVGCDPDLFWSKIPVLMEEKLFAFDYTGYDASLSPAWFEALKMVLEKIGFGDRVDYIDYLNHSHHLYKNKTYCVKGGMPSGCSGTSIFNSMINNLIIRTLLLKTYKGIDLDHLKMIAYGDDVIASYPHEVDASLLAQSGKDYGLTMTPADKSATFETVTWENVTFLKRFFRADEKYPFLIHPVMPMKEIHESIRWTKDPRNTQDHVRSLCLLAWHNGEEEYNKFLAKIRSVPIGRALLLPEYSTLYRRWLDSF
PV pol inh intensity: second read-out of PV pol inh, no call of its own (marks repeat the call); % elongation; measured here: total intensity read-out; formula for this scale not given here;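 total fluorescence in place of polarization; lower means less elongation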
An asterisk follows results filed as active; . = no result given.

1: COc1ccc(NC(=O)c2cn3ccc(C)cc3n2)cc1
2: O=C(CN1c2ccccc2S(=O)(=O)c2ccccc21)NCc1ccccc1
3: Cc1ccc(NC(=O)CN(C)CC(=O)Nc2ccccc2C(=O)NC2CCCC2)cc1
4: O=C(N/C=C\n1cnc2cc(C(F)(F)F)ccc21)c1cc2c(s1)CCC2
5: COC(=O)c1cc2oc3ccccc3c2n1Cc1nc(-c2ccccc2)oc1C

assay / entry	1	2	3	4	5
MenB inh	8	-6	-15	.	4
MbtI inh	16	-16	3	-2	4
PV pol inh	101	102	102	102	102
PV pol inh intensity	99	104	108	103	104

6: N#CC(C#N)=C(Nc1ccccc1Cl)SCc1cccc(F)c1
7: COc1ccccc1N1CCN(CCCNC(=O)c2nnc(Cc3ccccc3Cl)o2)CC1
8: C=CCn1c(SCc2cc(=O)oc3cc(O)ccc23)nnc1-c1ccccc1OC
9: COc1cc(C2SCC(C(=O)O)N2C(C)=O)cc(Br)c1O (configuration not stated)
10: Cc1nn(-c2ccccc2)c2c1CC(C#N)(C(=O)c1ccc(Cl)cc1)C1CCCN21 (configuration not stated)

assay / entry	6	7	8	9	10
MenB inh	14	-1	-17	-13	8
MbtI inh	.	-1	-39	-2	-8
PV pol inh	101	101	106	101	106
PV pol inh intensity	107	97	112	100	110

11: CN1CCN(c2ccc(NC(=O)c3cccc(Cl)c3)cc2)CC1
12: CC(NC(=O)c1ccco1)C12CC3CC(CC(C3)C1)C2 (configuration not stated)
13: COC(=O)C1=NN(c2ccccc2)C2C(=O)N(c3ccccc3OC)C(=O)C12 (configuration not stated)
14: CC12CC(c3cc(Br)cc(Br)c3O1)C(C(=O)c1ccccc1)C(=O)N2 (configuration not stated)
15: O=C(Nc1cccc(Cl)c1)Nc1ccccc1C(=O)N1CCCCC1

assay / entry	11	12	13	14	15
MenB inh	-10	3	-49	-1	-5
MbtI inh	5	-1	59	-9	-12
PV pol inh	101	97	99	104	100
PV pol inh intensity	102	106	101	108	102

16: O=C(OC1CCOC1=O)c1ccc(S(=O)(=O)N2CCCC2)cc1 (configuration not stated)
17: O=C(O)CCC(=O)Nc1ccncc1
18: CCC(CC)C(=O)Nc1ccc(C)cc1C
19: COc1ccc(-n2[nH]c(C)c(C(C)=NCCN3CCOCC3)c2=O)cc1
20: CC(C)(C)c1ccc(C(=O)Nc2cccc(-c3cn4cccnc4n3)c2)cc1

assay / entry	16	17	18	19	20
MenB inh	6	-57	-1	-12	-11
MbtI inh	-1	-9	-23	6	105
PV pol inh	97	99	101	104	104
PV pol inh intensity	104	102	102	102	103

21: C=CCn1c(SC)nnc1-c1ccc(OC)c(OC)c1
22: Cc1cc(Oc2ccc(=O)n(C)n2)nc(SCC(N)=O)n1
23: CC(C)(C)c1ccc(NC(=O)CCC(=O)O)cc1
24: N=C1c2ccccc2CN1NC(=O)c1ccccc1
25: CC(C)S(=O)(=O)c1csc(C(=O)NN)c1Cl

assay / entry	21	22	23	24	25
MenB inh	-13	-12	4	-3	-5
MbtI inh	.	-7	6	8	-11
PV pol inh	105	100	97	105	106
PV pol inh intensity	108	108	102	103	115

26: COc1ccc(-c2cc(C(F)F)n3ncc(C(=O)Nc4cc(C)on4)c3n2)cc1
27: CCN(CC)CCn1c(SCC(=O)Nc2cccc(OC)c2)nc2c(sc3ccccc32)c1=O
28: O=C1S/C(=C/c2ccccc2)C(=O)N1c1ccccc1
29: CCOC(=O)N1CCN(Cc2nc3c(c(=O)n(C)c(=O)n3C)n2CC)CC1
30: CCSc1nnc2c(n1)OC(c1cccc(OC)c1OCC(=O)O)Nc1ccc(Br)cc1-2 (configuration not stated)

assay / entry	26	27	28	29	30
MenB inh	-11	-4	-25	-32	-39
MbtI inh	-1	46	0	-13	32
PV pol inh	102	102	102	105	102
PV pol inh intensity	103	108	102	100	102

31: COc1cc(/C=C2\CCc3ccccc3C2=O)ccc1OCCC(C)C
32: COc1cc(C2=NOC(=O)/C2=C\c2ccc(Cl)cc2Cl)cc(OC)c1OC
33: Cn1nc(NC(=O)C2CCC2C(=O)O)c2c(F)cccc21 (configuration not stated)
34: CCCN(CCC)Cc1cn2c(-c3ccc(OC)cc3)nnc2s1
35: COc1cc(Br)c(CC(=O)N2CCOCC2)cc1OC

assay / entry	31	32	33	34	35
MenB inh	-58	5	-14	-7	.
MbtI inh	9	.	-11	8	-8
PV pol inh	103	44	104	99	103
PV pol inh intensity	103	245	107	104	108

36: O=c1c2ccccc2nnn1CSc1nncn1-c1ccccc1
37: CC(C)=NNC(=O)c1nnn(-c2nonc2N)c1CN1CCOCC1
38: COc1ccc(CC(=O)NCc2nn(-c3ccccc3)nc2C)cc1OC
39: Cc1ccc(Cn2c(-c3cscn3)nc3ccccc32)cc1
40: COc1cccc(C(=O)Cn2c(=O)n(CCC(=O)NC3CCCC3)c(=O)c3cc(OC)c(OC)cc32)c1

assay / entry	36	37	38	39	40
MenB inh	6	-14	-3	.	-17
MbtI inh	-15	-12	6	-8	-13
PV pol inh	106	101	100	101	100
PV pol inh intensity	106	103	95	104	103

41: O=C(O)Cn1cc(C(F)(F)F)ccc1=O
42: CN(C)CN1C(=O)C(=Nc2ccc3ccccc3c2)c2ccccc21
43: CCc1noc(C)c1C(=O)OCC(=O)c1ccccc1OC
44: CC(C)OCCn1cnc2sc3c(c2c1=O)CCCC3
45: Cn1cc(CC(=O)Nc2ccc(F)cc2F)c2ccccc21

assay / entry	41	42	43	44	45
MenB inh	-23	-42	-22	4	-25
MbtI inh	-19	4	-6	-1	6
PV pol inh	105	99	108	102	103
PV pol inh intensity	103	99	113	103	100

In the list so far, 2 contain a CF3 group:
4: O=C(N/C=C\n1cnc2cc(C(F)(F)F)ccc21)c1cc2c(s1)CCC2
41: O=C(O)Cn1cc(C(F)(F)F)ccc1=O

assay / entry	4	41
MenB inh	.	-23
MbtI inh	-2	-19
PV pol inh	102	105
PV pol inh intensity	103	103

The list continues:
46: CN(Cc1ccco1)c1nc(-c2ccc(Cl)cc2)nc2ccccc12
47: O=C(COc1ccccc1)NCC1COc2ccccc2O1 (configuration not stated)
48: CN1C(=O)/C(=C\C=C\c2ccc(N(C)C)cc2)SC1=S
49: Oc1c(C=NC2CCCCC2)[nH]c2ccc(Br)c(Cl)c12
50: COc1ccc(OC)c(NC(=O)CSc2nnc(C3CCCCC3)o2)c1

assay / entry	46	47	48	49	50
MenB inh	-50	2	-11	-25	-3
MbtI inh	118	-6	-3	-5	-6
PV pol inh	101	103	104	69	103
PV pol inh intensity	103	101	110	196	103

51: O=C(CSc1oc(-c2ccco2)nc1S(=O)(=O)c1ccccc1)NCC1CCCO1 (configuration not stated)
52: O=C1CSC2(CCCCC2)N1c1ccc(Cl)cc1
53: O=C(ON=C(c1cccs1)c1cccs1)c1ccc(Cl)cc1
54: NC(=O)c1oc2ccccc2c1NC(=O)c1ccccc1
55: O=C(Nc1nccs1)c1ccccc1-c1ccccc1

assay / entry	51	52	53	54	55
MenB inh	-25	-59	-2	-16	-24
MbtI inh	10	-3	3	7	.
PV pol inh	103	105	101	101	108
PV pol inh intensity	103	103	104	99	110

In a second layout: two of the compounds above.
#	SMILES	MenB inh	MbtI inh	PV pol inh	PV pol inh intensity
53	O=C(ON=C(c1cccs1)c1cccs1)c1ccc(Cl)cc1	-2	3	101	104
54	NC(=O)c1oc2ccccc2c1NC(=O)c1ccccc1	-16	7	101	99

New compounds follow
56: CC(C)NC(=O)CCc1c[nH]c2ccccc12
57: O=C(CC(=O)Nn1cnnc1)Nn1cnnc1
58: CCCc1c(C(=O)NNc2ccccc2OC)cnn1-c1ccccc1
59: O=C(NN1CCOCC1)c1cccc2ccccc12
60: O=C(O)c1cccc(OCc2cscn2)c1

assay / entry	56	57	58	59	60
MenB inh	3	-21	-20	-2	-7
MbtI inh	-25	-24	3	-9	-8
PV pol inh	62*	102	101	103	102
PV pol inh intensity	68*	102	103	105	98

61: Cc1cc(SCCC(=O)O)nc2c(C)cccc12
62: CCOC(=O)c1c(C)n(CC)c2ccc(O)cc12
63: CC(Nc1nncc(=O)[nH]1)c1ccccc1 (configuration not stated)
64: CCC(C(=O)NC(C)C)n1c2ccccc2c2nc(=O)cc(C)n21 (configuration not stated)
65: O=C(COC(=O)Cc1ccc(Cl)cc1)Nc1ccccc1

assay / entry	61	62	63	64	65
MenB inh	-25	.	11	-41	.
MbtI inh	.	-44	3	7	-10
PV pol inh	103	100	99	106	102
PV pol inh intensity	110	104	100	108	102

66: CCn1c(/N=C/c2ccccc2Cl)nc2ccccc21
67: Cc1cccc(N2CCN(C(=O)CCCCCn3c(=S)[nH]c4ccc(N5CCOCC5)cc4c3=O)CC2)c1C
68: COC(=O)c1ccc(COC(=O)c2ccc(S(=O)(=O)N(C)c3ccccc3OC)cc2)o1
69: O=C1OC(c2ccc(Cl)cc2)=N/C1=C\c1ccccc1
70: Clc1ccc(CO/N=C/c2cccs2)cc1

assay / entry	66	67	68	69	70
MenB inh	-10	-7	-14	-11	1
MbtI inh	-3	4	-14	14	-8
PV pol inh	103	102	107	105	102
PV pol inh intensity	102	102	105	107	97

71: Cc1cc(=O)oc2cc(OCC(=O)c3ccc4c(c3)NC(=O)CO4)ccc12
72: Cc1ccc(Cn2nnc3c(=O)[nH]c(C4CCN(S(=O)(=O)c5ccccc5C#N)CC4)nc32)cc1
73: Cc1ccc(OCC(=O)Nc2ccc(O)c(C(=O)O)c2)cc1
74: CNC(=O)c1cc(N2CCN(c3ccccc3)CC2)ccn1
75: O=C(NCCC1=CCCCC1)c1cc2cccc3c2n1CCS3

assay / entry	71	72	73	74	75
MenB inh	-12	-16	-23	-1	-54
MbtI inh	-11	-11	-116	-1	19
PV pol inh	98	104	102	102	106
PV pol inh intensity	102	103	99	108	105

76: CCOC(=O)CCc1c(C)nn(-c2ccc(N3CCCCC3)nn2)c1C
77: C/C(=N\n1cnnc1)c1ccc(O)cc1
78: Nc1nnc(SCC(=O)Nc2ccc(F)cc2)n1CC(=O)Nc1ccc(F)cc1
79: COc1ccc2ccc(OC)c(/C=C3\NC(=S)N(C)C3=O)c2c1
80: Cc1ccc(CNC(=O)C2CC(=O)N(CCC(C)C)C2)cc1 (configuration not stated)

assay / entry	76	77	78	79	80
MenB inh	-18	.	-27	-76	0
MbtI inh	0	6	-6	3	-3
PV pol inh	102	101	104	102	99
PV pol inh intensity	102	104	99	103	101

Two of these compounds, reformatted.
nr | compound | MenB inh | MbtI inh | PV pol inh | PV pol inh intensity
78 | Nc1nnc(SCC(=O)Nc2ccc(F)cc2)n1CC(=O)Nc1ccc(F)cc1 | -27 | -6 | 104 | 99
4 | O=C(N/C=C\n1cnc2cc(C(F)(F)F)ccc21)c1cc2c(s1)CCC2 | . | -2 | 102 | 103

More entries follow:
81: O=C(c1cnn2ccccc12)N1CCCc2ccccc21
82: CCc1ccc2oc(C(=O)NCc3ccncc3)cc(=O)c2c1
83: COc1cccc(-c2noc(-c3cccnc3)n2)c1
84: CC(=O)OC1CCC(C(=O)O)CC1 (configuration not stated)
85: N#CC(C#N)=CNCCc1ccc(Cl)cc1

assay / entry	81	82	83	84	85
MenB inh	-9	-12	-6	-49	-4
MbtI inh	-8	3	-13	7	18
PV pol inh	102	100	102	102	101
PV pol inh intensity	104	102	107	101	103

Some entries already given, reduced to PV pol inh intensity:
cpd | Structure | PV pol inh intensity
82 | CCc1ccc2oc(C(=O)NCc3ccncc3)cc(=O)c2c1 | 102
83 | COc1cccc(-c2noc(-c3cccnc3)n2)c1 | 107
84 | CC(=O)OC1CCC(C(=O)O)CC1 (configuration not stated) | 101

New compounds follow
86: CN(C1CCCCC1)S(=O)(=O)c1ccccc1N=Cc1c(O)n(C)c(=O)n(C)c1=O
87: Cc1ccc2c(C)nc(Nc3nc(CSc4nnc(C)s4)cc(=O)[nH]3)nc2c1
88: CN(C)CCN(C(=O)c1ccc(Br)cc1)c1nc2ccc(Cl)cc2s1
89: C=C1Cn2c(nc3sc4c(c3c2=O)CCCC4)S1
90: CCCNC(=O)c1cc(-c2ccco2)on1
91: Cc1cccc(C)c1NCc1nnc(SCC(N)=O)n1-c1ccccc1
92: Cc1cc(-c2ccc(S(=O)(=O)NC3CCCc4ccccc43)cc2)on1 (configuration not stated)

assay / entry	86	87	88	89	90	91	92
MenB inh	-9	-3	-7	-10	-7	2	-34
MbtI inh	20	-4	-1	-17	3	-12	-6
PV pol inh	104	101	104	100	102	100	105
PV pol inh intensity	107	100	98	103	108	104	102

Random draw from the library; about 1.7% have a hit in one of these screens.
